# Ab BasE inh – inhibitors of Acinetobacter baumannii siderophore enzyme BasE. inhibition, % (concentration not given with the values). purified BasE, fluorescence polarization binding displacement. actives 0.1% (n = 84,000). AID 485350;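 active = both replicates above 25% with normal brightness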;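 note: 0% = negative plate control signal and 100% = positive plate control signal; stock transfer was 100 nL into about 30 µL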
# LANA-nucl inh – LANA-nucleosome interaction inhibition | FITC-LANA1-23 / chicken nucleosome fluorescence polarization; stronger effect = lower value | z-score (no concentration beside the values) | actives 0.3% (n = 51,000);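 active = both repeat wells score below -2 in polarization z-score versus plate sample wells, excluding overly bright wells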;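 note: 100 nL library stock added to about 30 µL; numbers are from one replicate; some results filed as inactive read as strong as hits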
#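 Test system: purified chicken nucleosomes with FITC-labelled LANA N-terminal peptide (1-23); Input: 240 nM purified chicken nucleosomes (480 nM peptide binding sites), final; Medium: TEN-BT buffer, pH 7.5; Timing: 10–45 min, room temperature; Technique: fluorescence polarization, 480 nm excitation, 535 nm parallel and perpendicular emission; Replication: duplicates.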
# * hit, by the source's call; nt = not tested or not shown; & = joins results of further samples. These rows are one share of the data; rates above refer to the full screens.
structure,Ab BasE inh,LANA-nucl inh
COc1ccc(NC(=O)CS(=O)CC(=O)Nc2ccc(NC(C)=O)cc2)cc1 (stereo unspecified),0.3,-0.37
O=C(O)CCn1ccccc1=O,0.9,0.2
CC(=O)N1CC(=O)N=C1SCC(=O)Nc1nc2c(s1)CCCC2,7.8,nt
O=C(O)c1cn(-c2ccc(F)cc2)c(=O)c2ccccc12,nt,-0.93
COC(=O)c1sc2nc3c(c(C(F)(F)F)c2c1N)CN(C(C)=O)CC3,31,-8.1*
O=C(CN1C(=O)c2ccccc2C1=O)NC1CCCCC1,-1.5,0.99
O=C1CNC(=S)N1CCC1=CCCCC1,-1.0,0.26
Cc1cc2oc(=O)cc(CN3CCCC(C)C3)c2cc1C(C)C (stereo unspecified),0.1,nt
Cc1cc(NC(=O)c2cccc(Oc3ccccc3)c2)n[nH]1,-0.3,nt
COc1cc2cc(C#N)c(SCC(=O)OC(C)C)nc2cc1OC,-2.0,0.92
CN(C)S(=O)(=O)c1ccc(N2CCCC2)c(C(=O)NC23CC4CC(CC(C4)C2)C3)c1,1.1,nt
COc1cc2c3nc4n(c(=O)c3n(CC(=O)N3CCCCC3C)c2cc1OC)CCS4 (stereo unspecified),-2.2,-0.13
O=C(CSc1ncnc2sc3c(c12)CCCC3)N/N=C/c1cccs1,-0.7,-0.25
COC(=O)C1=C(C)NC2=C(C(=O)CC(c3ccc(N(C)C)cc3)C2)C1c1ccco1 (stereo unspecified),4.0,-0.75
Cn1c(=O)c2c(n(C)c1=O)=NC1(CCCCC1)ON=2,-0.6,1.2
CCc1ccc(NC(=O)Cn2nnnc2N)cc1,2.4,-0.41
Fc1cccc(Nc2nc(-c3ccccc3)no2)c1,-2.3,-0.19
O=C1OC(c2ccccc2)=N/C1=C\C=C\c1ccco1,3.7,-0.72
O=C(CC1OC(=O)c2ccccc21)c1ccc(Cl)s1 (stereo unspecified),-0.5,nt
CCCCN(C)C1=Nc2cccc3cccc1c23,2.9,nt
Cc1ccccc1S(=O)(=O)/N=C(\N)c1ccccc1,1.8,nt
Cn1c(CSc2nc3ncnc(N)c3[nH]2)nc2ccccc21,-3.0,0.56
Cc1cc(C)cc(NC(=O)COC(=O)C2CCN(c3ccc(C(F)(F)F)cn3)CC2)c1,-0.7,nt
COc1ccc(-c2nnc(Nc3cccc(C(F)(F)F)c3)c3ccccc23)cc1,1.8,nt
N#CCSc1nc2c(cc1C#N)CCCCC2,0.2,-0.74
COc1cc(C(=O)NC2CCS(=O)(=O)C2)cc(OC)c1OC (stereo unspecified),1.0,-1.1
COc1ccc(-c2nnc(SC3CCOC3=O)n2-c2ccccc2)cc1 (stereo unspecified),-2.2,nt
CCN1c2ccccc2NC2=C(C(=O)CC(C)(C)C2)C1c1ccccc1 (stereo unspecified),-3.1,1.6
N#Cc1ccc(C(=O)N2CC=C(c3ccccc3)CC2)cc1,-0.9,nt
COc1ccc(/C=C2\N=C(c3ccccc3)N(/N=C/c3cccnc3)C2=O)cc1,-3.7,nt
COc1ccccc1/C=C/C=N/NC(=O)c1cc(-c2ccco2)[nH]n1,1.9,0.084
C[C@@H]1O[C@@H](OC[C@H]2OC(Oc3c(-c4ccc(O)c(O)c4)oc4cc(O)cc(O)c4c3=O)[C@H](O)[C@@H](O)[C@@H]2O)[C@H](O)[C@H](O)[C@H]1O (stereo partly specified),nt,1.1
C=CCn1c(COc2cccc3cccnc23)nnc1SCCC(=O)O,3.0,0.69
Cc1csc2nc(CCNC(=O)CC3CCCC3)cn12,0.0,0.58
Nc1nnc(CC(=O)N/N=C/c2cccs2)s1,4.3,-0.033
Cc1ccc(C(=O)c2ccc(Oc3ccccc3)cc2)cc1,0.0,nt
COC(=O)c1cc2sccc2n1Cc1ccc(Cl)cc1,-1.3,0.068
Cc1ccccc1Cn1c(C)c(/C=C2\SC(N)=NC2=O)c2ccccc21,1.9,0.53
CN(C1CCCCC1)S(=O)(=O)c1ccc(S(=O)(=O)c2ccccc2)s1,0.5,nt
CC(C)CC(NS(=O)(=O)c1ccc2c(c1)CCCC(=O)N2)C(=O)N1CCOCC1 (stereo unspecified),2.2,nt
COc1ccc(-c2nc3nc4ccccc4nc3n2CC2CCCO2)cc1 (stereo unspecified),2.3,-1.1
CCC(CC)NC(=O)C1c2ccccc2Oc2ccccc21,0.8,nt
Fc1cccc(Cl)c1C=NCc1ccc(Cl)cc1,-1.1,nt
CSc1nsc(SCC(=O)C(C)(C)C)n1,0.1,-0.84
COc1ccc(C(=O)N2CCN(C(=O)c3ccco3)CC2)cc1S(=O)(=O)NCCc1ccccn1,2.3,nt
Nc1ccccc1-c1n[nH]c(C2CC2)n1,3.0,nt
Cc1ccc2[nH]c(=O)c(CN(Cc3ccccc3)C(=O)c3ccco3)cc2c1,4.2,-0.96
CN1/C(=C\C=N\NC(N)=S)C(C)(C)c2ccccc21,4.1,nt
COc1ccc(/C=c2\s/c(=C\C(=O)c3ccco3)[nH]c2=O)cc1O,-16,nt
CCN(CC)C(=O)c1ccccc1Nc1ccc(SC(F)F)cc1,-0.9,nt

# Entries listed above printed as active in LANA-nucl inh:
structure	LANA-nucl inh
COC(=O)c1sc2nc3c(c(C(F)(F)F)c2c1N)CN(C(C)=O)CC3	-8.1*

# The listing continues:
structure,Ab BasE inh,LANA-nucl inh
CC1(C)CC2CC(C)(CN2S(=O)(=O)c2cccc(C(N)=O)c2)C1 (stereo unspecified),-1.0,nt
CCOC(=O)c1cc(C(=O)OC)c(C)nc1NCc1ccc2c(c1)OCO2,-0.1,0.58
O=C(Nc1ccccc1C(F)(F)F)c1ccccn1,1.8,nt
CC(C)(C)CC(=O)NC1CCCCCCC1,2.4,-0.64
CC(C)N(C(=O)CSc1nnc(NC2CC2)s1)c1ccccc1,2.1,nt
COC(=O)c1cnc(N(C)C2CCCCC2)c2ccccc12,1.7,-0.59
Cc1nn2cc(Cl)nc2s1,0.8,nt
C#CCN1C(=O)S/C(=C/c2cc(C)n(-c3ccc(OC)cc3)c2C)C1=O,2.8,0.32
O=C(Cc1cccs1)N/N=C/C1CCCCC1,3.2,nt
O=C1NC(=O)C(Cc2ccccc2)(Cc2ccccc2)N1,0.5,nt
N#CCNC(=O)c1cccc(I)c1,-3.0,0.21
C=CCN=c1scc(-c2ccco2)n1/N=C(\C)CC,-4.2,nt
COC(=O)c1cc(CO/N=C(\C)c2ccc3c(c2)OCCO3)oc1C,-1.4,nt
CCOC(=O)N1CCc2c(sc3[nH]c(=S)n(-c4ccccc4)c(=O)c23)C1,2.3,nt
O=C(C1CCCN1c1nnc(N2CCCC2=O)s1)N1CCc2ccccc2C1 (stereo unspecified),1.9,0.96
Cn1nccc1N1C(=O)c2ccccc2C1=O,3.1,nt
CC1=C(CC(=O)c2ccccc2)C(=O)c2ccccc2C1=O,nt,0.8
O=C(Cn1nnc(-c2cccc(C(F)(F)F)c2)n1)c1ccc2c(c1)OCCO2,1.0,nt
N#CC(C(=O)NC1CC1)c1nc2ccccc2nc1N1CCCC1 (stereo unspecified),-2.4,nt
O=C1CC(NCc2ccccc2)C(=O)N1c1ccccc1 (stereo unspecified),1.1,0.16
CC(NC(=S)NCCN1CCOCC1)C1CC2CCC1C2 (stereo unspecified),1.3,nt
O=C(CSc1nc2ccccc2o1)N=Nc1c(O)n(CN2CCCCC2)c2ccccc12,-0.4,nt
Cc1ccsc1/C=C/C(=O)O,nt,2.6
CCOc1cc(C#N)cc(Br)c1OC(=O)c1oc2ccc(OC)cc2c1C,0.0,nt
Cn1c(=NC(=O)c2cccc(F)c2)sc2ccccc21,-0.8,nt
Cn1c(SCC(=O)N/N=C2/CC3CCC2(C)C3(C)C)nnc1-c1ccco1 (stereo unspecified),-0.6,nt
CC(=O)Oc1ccc(N2C(=O)c3cccnc3C2=O)cc1,-1.8,1.2
c1cc(C(N2CCOCC2)N2CCOCC2)ccn1,-0.4,nt
CC1(C)C2CCC1(CS(=O)(=O)N1CCCC1C(=O)O)C(=O)C2 (stereo unspecified),0.7,nt
CCOC(=O)c1oc2c(c1C)/C(=N/OC(=O)c1ccccc1Cl)CCC2,1.1,-0.79
CCOc1ncccc1C(=O)NCc1ccc(S(N)(=O)=O)cc1,0.7,nt
CC(=O)Nc1ccc(NC(=O)C(C)OC(=O)Cc2c[nH]c3ccccc23)cc1 (stereo unspecified),-3.0,nt
C[C@@H](C(=O)NCc1ccccc1Cl)N1C(=O)C2CC=CCC2C1=O (stereo partly specified),0.5,nt
CC(C)(C)NC(=O)NCCC1CCCCN1S(=O)(=O)c1ccccc1 (stereo unspecified),1.5,-1.4
O=C(Nc1ncc(Cl)cn1)c1cccs1,nt,0.38
Cc1csc(SCc2ccccc2C(=O)OCc2nc3scc(-c4ccco4)c3c(=O)[nH]2)n1,-1.1,nt
CC1=CC(=C(C#N)C#N)C=C(C)N1CCc1ccc(S(N)(=O)=O)cc1,0.8,nt
CC1CCCC(NCC(O)COCc2ccc3c(c2)OCO3)C1C (stereo unspecified),0.4,nt
CSc1ccccc1C(=O)NCC1COc2ccccc2O1 (stereo unspecified),1.3,nt
Cc1ccc(OCC(=O)/C=C2\N(C)c3ccccc3C2(C)C)cc1,-0.7,nt
O=C(O)CC(=O)Nc1ccc(OC(F)(F)F)cc1,nt,-0.51
CCS(=O)(=O)c1ccc(O)c(NC(=O)CC2(CC(=O)O)CCCC2)c1,-3.3,-0.42
COC(=O)COc1ncnc2sc3c(c12)CCC3,-1.7,nt
c1ccc(CC2CCN(c3ncnc4c3oc3ccccc34)CC2)cc1,-0.6,nt
CO/C(N)=N/C(=S)Nc1ccc(C(C)C)cc1,0.9,-1.4
COc1ccc(CCN2C(=O)CCC2(C)C(=O)NCc2ccccc2)cc1OC (stereo unspecified),1.4,0.49
CCC(C)N(C(=O)CSc1nc(N)c2c3c(sc2n1)CCCC3)C1CCS(=O)(=O)C1 (stereo unspecified),0.2,nt
O=C(OCC(=O)N1CCCC1=O)c1cccc(S(=O)(=O)NCc2ccccc2)c1,-1.2,nt
CC(C)(C)C(=O)NC(=S)Nc1cc(C(F)(F)F)cc(C(F)(F)F)c1,1.2,nt
CCOc1ccc(N2C(=O)CC(N3CCC(O)(c4ccc(Cl)cc4)CC3)C2=O)cc1 (stereo unspecified),-0.9,1.2

# (next part)
structure,Ab BasE inh,LANA-nucl inh
CSc1ccc(C2C3C(=O)NC(=O)C3ON2c2ccccc2)cc1 (stereo unspecified),-1.0,-0.47
O=C(Cn1nc2sc3ccccc3n2c(=O)c1=O)c1cccs1,2.5,-0.35
CCC(CC)NC(=O)c1ccc[nH]c1=S,-0.3,nt
CC(=O)[C@H]1CC[C@H]2[C@@H]3CC=C4C[C@@H](O)CC[C@]4(C)[C@H]3CC[C@]12C,-1.9,-0.64&0.75
CCN(CC)Cc1ccc(C(=O)O)o1,2.7,-0.033
CC(C)C(=O)Nc1ccc(NC(=O)c2ccccc2)nc1,-0.4,-1.5
Cc1ccc(S(=O)(=O)CCC(=O)OCn2nnc3ccccc3c2=O)cc1,3.4,nt
OCCc1c(-c2ccccc2)n(Cc2ccccc2)c2ccccc12,-1.3,nt
CCc1nc2ccccc2c(C(=O)OCC(=O)N2C(C)CCCC2C)c1C (stereo unspecified),-3.6,nt
CCn1c(CCC(N)=O)n[nH]c1=S,1.6,nt
CC(C)n1nc(C(=O)Nc2ccc3c(c2)CCC3)c2ccccc2c1=O,13,nt
N#C/C(=C\c1c(Oc2ccccc2)nc2ccccn2c1=O)C(=O)NC1CCS(=O)(=O)C1 (stereo unspecified),1.9,-0.96
O=C(CSc1nnc(-c2c[nH]c3ccccc23)o1)C12CC3CC(CC(C3)C1)C2,2.6,nt
CC(C)(CO)NC(=O)C1CC(c2c(F)cccc2Cl)=NO1 (stereo unspecified),4.5,-0.022
COc1ccc2c(c1)CC/C(=C/c1ccccn1)C2=O,3.9,0.22
O=c1c2cnn(-c3ccccc3)c2nc(-c2cccs2)n1-c1ccc(Br)cc1,3.9,0.29
CC(NC(=O)/C=C/c1ccccc1Cl)c1ccccc1 (stereo unspecified),0.1,nt
N#Cc1cccc(NC(=O)/C=C/c2ccco2)c1,0.8,nt

# Three compounds from above, sorted by formula weight, smallest number first.
structure,Ab BasE inh,LANA-nucl inh
COc1ccc2c(c1)CC/C(=C/c1ccccn1)C2=O,3.9,0.22
CC(C)n1nc(C(=O)Nc2ccc3c(c2)CCC3)c2ccccc2c1=O,13,nt
O=C(CSc1nnc(-c2c[nH]c3ccccc23)o1)C12CC3CC(CC(C3)C1)C2,2.6,nt

# Random excerpt: 5 compounds from above
structure,Ab BasE inh,LANA-nucl inh
O=c1c2cnn(-c3ccccc3)c2nc(-c2cccs2)n1-c1ccc(Br)cc1,3.9,0.29
COC(=O)c1cc(CO/N=C(\C)c2ccc3c(c2)OCCO3)oc1C,-1.4,nt
CSc1ccccc1C(=O)NCC1COc2ccccc2O1 (stereo unspecified),1.3,nt
COC(=O)COc1ncnc2sc3c(c12)CCC3,-1.7,nt
Cn1nccc1N1C(=O)c2ccccc2C1=O,3.1,nt

# Screening data (PubChem BioAssay)
